Source: PubChem BioAssay
NPYLR7 agonist – activates Aedes aegypti NPYLR7 receptor; HEK293T NPYLR7/Galpha15, GCaMP6s calcium fluorescence; activation, % at 10 µM; 270,000 compounds, 0.15% hits; in the data active = activation above about 40%;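 note: 0% = vehicle and 100% = reference agonist at the receptor; some compounds past the cut are filed as inactive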
NPYLR7 agonist max-min – second read-out of NPYLR7 agonist, no call of its own (marks repeat the call); activation, %; measured here: Max-Min RFU normalised activation; some inactives read as strong as hits;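 span of the calcium signal over five minutes; 0% = vehicle and 100% = native peptide agonist; compound fluorescence can raise it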
An asterisk follows results filed as active; nt = no result given; + = active, no number; & = joins results of further samples.

SMILES | NPYLR7 agonist | NPYLR7 agonist max-min
COCCn1c(CN2CCCC(C)C2)nc2c1c(=O)n(C)c(=O)n2C (stereo not drawn) | 1 | 18
Cc1ccc(OCCCn2nc(C(N)=O)ccc2=O)cc1C | -2 | -7
O=C(NCC1Cc2ccccc2O1)c1ccc(Cl)s1 (stereo not drawn) | 8 | 4
CC[N+](C)(C)c1cccc(O)c1 | -21&23&-5&-3 | -18&6&-6&-5
Cc1[nH]c2c(C(=O)N(C)CC(C)O)cccc2c1C (stereo not drawn) | -1 | -3
COc1cccc(-c2nc(CN(C)C3CCCc4ccccc43)c(C)o2)c1OC (stereo not drawn) | 16 | 1
CCN(Cc1cccs1)C(=O)c1ccc(-c2cccs2)nc1C | 12 | 10
COc1cccc(NC(=O)C(C2CCCC2)N2CCNCC2)c1 (stereo not drawn) | 0 | 5
COc1ccc2oc(=O)c(C(=O)Oc3ccc(F)cc3)cc2c1 | 4 | 3
O=C(NC1CCN(C(=O)c2cn(-c3ccccc3)nn2)CC1)c1ccc2ccccc2n1 | -9 | -9
Cn1c(N)c(C(=O)COC(=O)CC2CC3CCC2C3)c(=O)n(C)c1=O (stereo not drawn) | 9 | 7
COc1ccccc1/C=N\NC(=O)C(NC(=O)c1ccccc1)c1n[nH]c(=O)c2ccccc12 (stereo not drawn) | -13 | -21
CC(=O)c1cc(Br)cc(Br)c1O | -4 | -6
CN(C(=O)NCCOc1ncc(C(F)(F)F)cc1Cl)C1CC1 | 8 | 4
O=C1CCC(C(=O)N2CCc3c(Cl)cccc3C2)CN1CCc1ccccn1 (stereo not drawn) | 7&0 | 5&-1
CN(C)S(=O)(=O)c1ccc(OCCN2CCc3sccc3C2C2CC2)cc1 (stereo not drawn) | 0 | 0
O=C(c1ccc(-c2cc(-c3ccccc3)n[nH]2)cc1)N1Cc2ccccc2C1 | -2 | -6
Cc1ccc(C)c(OCC(=O)NC(=S)N2CCOCC2)c1 | 3 | 4
Cc1nn(CN(C)C2C3CC4CC(C3)CC2C4)c(=S)n1C (stereo not drawn) | 4 | 2
O=C(CN1CCc2sccc2C1c1ccc(Cl)cc1)N1CCCN(C(=O)c2ccc([N+](=O)[O-])cc2)CC1 (stereo not drawn) | 4 | -6
COc1ccccc1C(=O)c1c(NC(=O)CN2CCN(C)CC2)sc2c1CCCC2 | -5 | -5
CCn1c(CNC(=O)CN2CCSC2=O)nc2ccccc21 | 1 | 1
COCCNC(=O)C1CCC(c2cccc(C)c2)N(C(=O)NC(C)C)C1 (stereo not drawn) | 24 | 10
CC(=O)OCC1=C(C(=O)O)N2C(=O)[C@@H](NC(=O)CSc3ccncc3)[C@H]2SC1 | -4&-7&6 | -10&-14&-6
COc1cc(N=C(N)N=C(N)N)c(OC)cc1Cl | 2 | 4
Cc1csc(SCCn2c(N3CCCC3)nc3c2c(=O)[nH]c(=O)n3C)n1 | 9 | 3
COCCCn1c(C(=O)Nc2ccc(C(C)C)cc2)cc2c(=O)n(C)c(=O)n(C)c21 | -1 | -4
CN(Cc1cnn(-c2ccc(F)cc2)c1)Cc1nc(-c2cccs2)no1 | 15 | 5
Cc1cccc(-n2nc(-c3cccn3C)cc2C(=O)N2CCN(c3cccc(C(F)(F)F)c3)CC2)c1 | 0 | 4
COc1cc(Br)c(S(=O)(=O)Nc2ccccc2Cl)cc1OC | -3 | -5
COc1ccc(CCOc2nc(-c3ccc(OC)cc3)n(-c3ccc(N)cc3)n2)cc1 | 0 | 12
CCCCNC(=O)c1cc(S(=O)(=O)N2CCCC2)ccc1Cl | 2 | 4
CC(=O)c1cc(CC(=O)NCc2ccc(F)cc2F)cs1 | -1 | -10
CC1CCCCN1C(=O)Cn1c2ccc(F)cc2c2ncn(Cc3ccccc3)c(=O)c21 (stereo not drawn) | -4 | -11
O=C(NCc1ccccn1)c1nn(-c2ccc(Cl)cc2)c(=O)n(Cc2ccccc2F)c1=O | -12 | -7
Cc1nccc(C(=O)NC2C(C)(C)C(NC(=O)c3ccnc(C)n3)C2(C)C)n1 (stereo not drawn) | 1 | -1
COc1ccc(C2CC(C(F)(F)F)n3nc(C(=O)Nc4cccc(O)c4)cc3N2)cc1 (stereo not drawn) | 2 | -3
Cc1nccn1CCC1CCCCN1C(=O)c1cn(Cc2ccccc2Cl)nn1 (stereo not drawn) | 2 | 0
O=S(=O)(Nc1ccc(Sc2ncn[nH]2)cc1)c1ccccc1Cl | 6 | 6
c1cncc(-n2cccc2CN2CCCC(Nc3ccc4c(c3)OCCO4)C2)c1 (stereo not drawn) | 9 | 8
CN(C)C(C)(C)CNCc1cnn(C2(C)CCS(=O)(=O)C2)c1 (stereo not drawn) | 2 | 3
Cc1cc(C(=O)N(Cc2ccccn2)c2nc3c(F)cccc3s2)nn1C | 4 | -1
O=C(O)c1cccnc1SC1CC(=O)N(c2ccccc2)C1=O (stereo not drawn) | 3 | -1
CC1=C(C(=O)O)N2C(=O)C(NC(=O)c3ccn(C)n3)C2SC1 (stereo not drawn) | 3 | 1
Cc1cccc(C)c1Nc1nnc(C(O)c2cccs2)s1 (stereo not drawn) | 2 | 2
CCn1nc(C(=O)N(CCCN(C)C)c2nc3cc(C)cc(C)c3s2)cc1C | 1 | 1
CCCCN(C(=O)c1cnc(C)cn1)c1c(N)n(CCC)c(=O)[nH]c1=O | -2 | 9
CCc1ccccc1NC(=O)c1nnn(Cc2nc(-c3cccc(OC)c3OC)oc2C)c1C | 4 | -5
COC(=O)CN(C(=O)c1ccsc1)C1CCCC1 | 3 | 1
CCN1CCN(C2=CC3=CC(=C(C#N)C#N)CCC3CC2)CC1 (stereo not drawn) | + | nt
COC(=O)C(C)Sc1nnc(CNC(=O)c2cccc(C(F)(F)F)c2)o1 (stereo not drawn) | 1 | -1
O=C1CSC(c2ccc(OC(F)F)cc2)N1c1ccccn1 (stereo not drawn) | -3 | -12
C=C(NN=c1sc2ccccc2n1C)c1ccc2c(c1)OCO2 | 3 | 0
O=C(NCc1cccs1)c1cccnc1N1CCN(C(=O)c2c(F)cccc2Cl)CC1 | 11 | 1
COCCN1C(=O)CC(CC(=O)N(C)Cc2csc(C)n2)(c2ccccc2Cl)C1=O (stereo not drawn) | 16 | 4
CCNC(=O)Nc1ccc(N(C)C)c(CN(C(=O)C(CC)c2ccccc2)C2CC2)c1 (stereo not drawn) | 3 | 7
Cc1cc(C(=O)N2CCCC(C(=O)c3ccc(Cl)cc3C)C2)nc(C)n1 (stereo not drawn) | 18 | 16
C=C(Br)CSc1nnc(Cc2cccc(OC)c2)o1 | -2 | -11
O=C(c1ccc(Cl)c(S(=O)(=O)NC2CC2)c1)N1CCCC1c1ccc2c(c1)OCCO2 (stereo not drawn) | 9 | 5
COC(=O)c1ccc(N2C(=O)CC(N3CCSCC3)C2=O)cc1 (stereo not drawn) | -1 | -1
(list continues)
SMILES | NPYLR7 agonist | NPYLR7 agonist max-min
Cc1cc(C)c2c(CC(=O)NC(C)c3cnn(C)c3)coc2c1 (stereo not drawn) | 5 | 5
Cn1c(CN2CCCC(CCC(=O)NCc3ccccc3F)C2)nc2ccccc21 (stereo not drawn) | 33 | 37
NC(=O)NCC(=O)N1CCN(c2c(F)c(F)c(F)c(F)c2F)CC1 | 1 | -1
O=C1/C(=C/c2c(F)cccc2Cl)Oc2c1ccc1c2CN(C2CCS(=O)(=O)C2)CO1 (stereo not drawn) | 15 | 8
COc1ccc(F)cc1C(=O)C1CCCN(C(=O)Nc2ccc(SC)cc2)C1 (stereo not drawn) | 15 | 17
COc1nc(C)c(C(=O)N2[C@@H]3CC[C@H]2CNC(=O)C3)s1 | 1 | -1
N#Cc1ccc(OC(C(=O)N2CCCC2)c2ccccc2)cc1 (stereo not drawn) | -1 | -2
O=C(C(Cc1ccccc1)n1cnnn1)N1CCC2(CCCO2)CC1 (stereo not drawn) | 7 | 6
O=c1c2ccccc2nnn1CN1CCN(c2ncccn2)CC1 | 4 | 3
CC(C)(C)c1ccc2oc(-c3ccc(NC(=O)c4ccccc4F)cc3)nc2c1 | -5 | -13
Cn1ncc(Oc2ccc(F)cc2)c(Nc2ccc(C(=O)NCc3ccco3)cc2)c1=O | -5 | 5
O=C(Cc1ccccc1)N1CCCC(OCc2cc(F)cc(F)c2)C1 (stereo not drawn) | -4 | 1

3 entries from above, field by field.
Structure: COc1nc(C)c(C(=O)N2[C@@H]3CC[C@H]2CNC(=O)C3)s1
  NPYLR7 agonist: 1 | NPYLR7 agonist max-min: -1

Structure: NC(=O)NCC(=O)N1CCN(c2c(F)c(F)c(F)c(F)c2F)CC1
  NPYLR7 agonist: 1 | NPYLR7 agonist max-min: -1

Structure: O=C(C(Cc1ccccc1)n1cnnn1)N1CCC2(CCCO2)CC1 (stereo not drawn)
  NPYLR7 agonist: 7 | NPYLR7 agonist max-min: 6

Following part
SMILES | NPYLR7 agonist | NPYLR7 agonist max-min
CCOC(=O)/C=C(\C)Nc1cc(-c2ccc(Cl)cc2)[nH]n1 | -7 | -13
O=C(C1CCN(c2nc(-c3ccccc3)nc3c2CCC3)CC1)N1CCc2ccccc2C1 | 8&-3 | 9&-6
CCOC(=O)c1cc(-c2ccc(F)cc2)n(C2CCN(S(=O)(=O)c3ccc(OC(F)(F)F)cc3)CC2)n1 | 16 | 7
CCOC(=O)C1CCCN(C(=O)CC(c2cccc(F)c2)c2cn(Cc3ccccc3)c3ccc([N+](=O)[O-])cc23)C1 (stereo not drawn) | -2 | 6
Cc1ccc(-n2nc(C)c(-c3ccccc3)c2NC(=O)CN(CC(C)C)C(=O)c2ccc(F)cc2)cc1 | 0 | 2
CC(=O)Oc1c(-c2ccccc2)c(=O)n2c3c(cccc13)CC2 | -4 | 1
C#CCOc1ccc(N(C)Cc2ccccn2)cc1 | 4 | 1
Cc1cccc(OCC(=O)Oc2coc(CSc3ncccn3)cc2=O)c1 | -14 | -12
O=C(Cn1nnnc1CN1CCCCCC1)NCC1(c2ccccc2)CCCC1 | 7 | 3
CN(Cc1ccc2ccccc2n1)C1CCN(C(=O)C2CCC2)CC1 | 1 | 1
Cc1cc(N)nc(SCC(=O)NCc2ccc(Cl)cc2)n1 | -6 | -10
Cc1cc(C)n(-c2cccc(C(=O)N3C[C@@H]4[C@@H]5CC[C@@H](C5)[C@@H]4C3)c2)n1 | 7 | 3
COc1cc(/C=N\NC(=O)c2nonc2N)c(Br)cc1O | -12 | -24
O=C(OCc1ccccc1F)c1cc2ccccc2c(=O)[nH]1 | 3 | 1
Cc1nc2c(OCCOc3ccccc3)cccn2c1N(C)C(=O)CCC1CCCC1 | -5 | -7
CCOC(=O)CCC(=O)N(CC(=O)N1CC(=O)N(c2ccc(OC)cc2)C1)CC(C)C | 10 | 15
CC(C)SCCn1cc2ncccc2c1O | -8 | -11
O=C1c2cc(Cl)c(Cl)cc2C(=O)N1CCn1cncn1 | 5 | 4
Cc1ccc(CN(Cc2ccccc2)C(=O)CNCCN2CCCC2)s1 | -9 | -18
CN(Cc1ccc2ccccc2n1)C(=O)c1ccc(-c2cccc3c2OCC3)nc1 | 10 | 10
CCOC(=O)c1c(-c2ccccc2)csc1NC(=O)C(C)(C)C | -2 | -6
CN(C)c1ccc(C=CC(=O)c2ccc(S(=O)(=O)N3CCCCCC3)cc2)cc1[N+](=O)[O-] | -1 | -5
CN(c1ccccc1)N1CC(C(=O)NCCOc2ccccc2)CC1=O (stereo not drawn) | -1 | -4
O=C(Nc1cc(C(F)(F)F)cc(C(F)(F)F)c1)c1cccn(OCc2ccc(F)cc2)c1=O | 2 | -1

Part of the list above in order of heavy-atom count, lowest first:
SMILES | NPYLR7 agonist | NPYLR7 agonist max-min
CC(C)SCCn1cc2ncccc2c1O | -8 | -11
C#CCOc1ccc(N(C)Cc2ccccn2)cc1 | 4 | 1
O=C1c2cc(Cl)c(Cl)cc2C(=O)N1CCn1cncn1 | 5 | 4
COc1cc(/C=N\NC(=O)c2nonc2N)c(Br)cc1O | -12 | -24
O=C(OCc1ccccc1F)c1cc2ccccc2c(=O)[nH]1 | 3 | 1
CCOC(=O)c1c(-c2ccccc2)csc1NC(=O)C(C)(C)C | -2 | -6
Cc1cc(C)n(-c2cccc(C(=O)N3C[C@@H]4[C@@H]5CC[C@@H](C5)[C@@H]4C3)c2)n1 | 7 | 3
Cc1ccc(CN(Cc2ccccc2)C(=O)CNCCN2CCCC2)s1 | -9 | -18
Cc1cccc(OCC(=O)Oc2coc(CSc3ncccn3)cc2=O)c1 | -14 | -12
O=C(Cn1nnnc1CN1CCCCCC1)NCC1(c2ccccc2)CCCC1 | 7 | 3
CN(Cc1ccc2ccccc2n1)C(=O)c1ccc(-c2cccc3c2OCC3)nc1 | 10 | 10
Cc1nc2c(OCCOc3ccccc3)cccn2c1N(C)C(=O)CCC1CCCC1 | -5 | -7
CN(C)c1ccc(C=CC(=O)c2ccc(S(=O)(=O)N3CCCCCC3)cc2)cc1[N+](=O)[O-] | -1 | -5
O=C(Nc1cc(C(F)(F)F)cc(C(F)(F)F)c1)c1cccn(OCc2ccc(F)cc2)c1=O | 2 | -1

Later entries
SMILES | NPYLR7 agonist | NPYLR7 agonist max-min
CC1CCCCN1c1nc2nonc2nc1N1CCCCC1C (stereo not drawn) | 27 | 21
COc1ccc(-n2nnc3c(SCC(=O)N4CCCCC4)ncnc32)cc1 | 18 | 19
COc1cn2c(cc1=O)C(=O)N(CCNC(=O)c1cccc(F)c1)CC2 | 15 | 6
CN1CCN(n2c3c(c(SCC(=O)NC4CCCC4)nc2=O)CCC3)CC1 | -4 | -10
Cc1ccn2c(=O)nc(SCC(=O)Nc3cccc(F)c3)nc2c1 | 1 | -2
CCCNC(=O)CCc1nc2sc3c(c2c(=O)[nH]1)CCCC3 | 8 | 5
COCCN1CCC(CN(CC2CCCO2)C(=O)c2ccccc2SC)CC1 (stereo not drawn) | -9 | -12
CCOC(=O)c1ccccc1NC(=O)CSc1ccc(-c2cccnc2)nn1 | -8 | -13
CCN(c1ccc(C(=O)NNC(=O)C2CC2)cc1)C(C)C | 14 | 11
COc1ccccc1CNC(=O)c1nc(-c2ccccc2)oc1C | 12 | 6
COc1cccc(NC(=O)CN2CN(c3ccccc3)C3(CCN(C(=O)c4ccc([N+](=O)[O-])cc4)CC3)C2=O)c1 | 17 | 15
c1csc(Cc2nc(-c3cccs3)no2)c1 | -4 | -5
c1ccc(NC2CCCN(C3Cc4ccccc4C3)C2)cc1 (stereo not drawn) | -1 | -1

Not all compounds are listed; the hit share may differ from the screen's.
